E coli growth: E. coli growth inhibition, primary screen, OD600 | OD600 absorbance (concentration not given with the values) | hit rate 0.21% among 330,000 | Escherichia coli growth, 23 h; stronger effect = lower value;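 active = OD600 absorbance below the run mean of sample wells minus 3.6 SD, in any replicate, cut at about 0.56 in these data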;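 also: stock transfer was 300 nL into about 60 µL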
rRNA inh HTS: reduced GFP signal of wild-type E. coli, primary screen, bacterial rRNA inhibitor project, GFP/RFP fluorescence, OD600, single point; GFP signal change (wild-type ribosome), % (concentration not given with the values); hit rate 1.6% among 350,000; E. coli WT GFP vs humanized-ribosome RFP mutants, 24 h; stronger effect = lower value; DMSO median 0, no signal -100;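 active = significant combined selectivity score with lowered wild-type GFP, culture density cut under 30%, mutant RFP and density less affected; inactive = any of these conditions unmet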; also: one replicate is shown; some compounds called inactive have numbers as strong as hits
FGF22 binding: binders of human FGF22 protein, primary screen, FGF22 synaptogenesis inhibitor project, biophysical, thermal shift, single point; Fibroblast growth factor 22 (Homo sapiens), Q9HCT0; calls only at 9.99 µM; recombinant FGF22 thermal shift, SYPRO orange fluorescence; percent of sucrose octasulfate shift, DMSO zero; hit rate 1.5% among 340,000;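 active = melting point raised past a set limit in the mean and every replicate; inconclusive = no clear call; three in four hits are not shown here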
Target sequence (Q9HCT0 whole entry, looked up): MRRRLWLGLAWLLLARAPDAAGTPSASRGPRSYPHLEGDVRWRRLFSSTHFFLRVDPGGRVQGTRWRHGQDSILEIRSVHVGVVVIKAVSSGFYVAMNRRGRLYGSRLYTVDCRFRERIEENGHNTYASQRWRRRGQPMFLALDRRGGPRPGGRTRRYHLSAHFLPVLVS
Beta cell apopt: inhibitors of cytokine-induced beta cell apoptosis, primary screen, luminescence; hit rate 0.8% among 300,000; protection from apoptosis, % (no concentration beside the values); INS-1E cytokine-induced death, ATP luminescence, 48 h; percent of positive-control rescue, neutral wells zero; AID 435005, 2010;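 active = all replicates at 75% or more, or half of them and the mean; inconclusive = half reach 75% but not the mean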;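 also: 0% = cytokine-treated negative control wells and 100% = positive control rescue; higher means more ATP so stronger rescue from cytokine killing; wells of about 40 µL received 100 nL stock; the first replicate is given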
Bfl-1 A1 inh: caspase 3/7 activation in MEF A1-2A-BIM cells, primary screen, A1 inhibitor project, cell-based, luminescence, HTS; hit rate 0.066% among 330,000; Caspase-Glo 3/7 luminescence, 3 h; percent of clofoctol response, vehicle zero; caspase activation, % (concentration not given with the values);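 active = over half of replicate activation scores above 10%, or exactly half above 10 with the replicate mean above 10; inconclusive = replicate mean below 10 yet half the replicates above 10; inactive = over half of replicates below 10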;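 also: wells of about 30 µL received 50 nL stock; many hits fall short of the cut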
T cruzi repl: inhibitors of intracellular T. cruzi growth, primary screen, luminescence, NIH3T3 host cells; T. cruzi beta-gal in NIH3T3, 90 h; inhibition, % (no concentration beside the values); hit rate 1.4% among 300,000; AID 1885, 2009;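 active = mean inhibition across valid replicates above about 55%, limit read from the data; inconclusive = mean below that limit but half or more replicates reach it; inactive = mean below it, under half of replicates reach it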;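 also: signal also drops with host cell toxicity which is not excluded here; 0% = plate median of DMSO wells and 100% = zero luminescence signal; higher percent means less beta-gal luminescence so fewer parasites; stock transfer was 50 nL into about 50 µL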
AF4-AF9 inh: inhibitors of AF4 peptide binding to AF9, primary screen, biochemical, AlphaScreen, biotin-AF4 peptide, FLAG-AF9, single point; Protein AF-9 (Homo sapiens), P42568; inhibition, % at 10 µM; hit rate 0.47% among 350,000;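 active = every replicate reaching a set inhibition limit, whatever the replicate mean, cut at about 25% in these data; inconclusive = mean inhibition reaches that limit but some replicates miss it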;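 also: 0% = plate neutral control median and 100% = total signal loss; the record names both 10 and 1 µM as test concentration; the first replicate is given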
Target sequence (P42568 whole entry, looked up): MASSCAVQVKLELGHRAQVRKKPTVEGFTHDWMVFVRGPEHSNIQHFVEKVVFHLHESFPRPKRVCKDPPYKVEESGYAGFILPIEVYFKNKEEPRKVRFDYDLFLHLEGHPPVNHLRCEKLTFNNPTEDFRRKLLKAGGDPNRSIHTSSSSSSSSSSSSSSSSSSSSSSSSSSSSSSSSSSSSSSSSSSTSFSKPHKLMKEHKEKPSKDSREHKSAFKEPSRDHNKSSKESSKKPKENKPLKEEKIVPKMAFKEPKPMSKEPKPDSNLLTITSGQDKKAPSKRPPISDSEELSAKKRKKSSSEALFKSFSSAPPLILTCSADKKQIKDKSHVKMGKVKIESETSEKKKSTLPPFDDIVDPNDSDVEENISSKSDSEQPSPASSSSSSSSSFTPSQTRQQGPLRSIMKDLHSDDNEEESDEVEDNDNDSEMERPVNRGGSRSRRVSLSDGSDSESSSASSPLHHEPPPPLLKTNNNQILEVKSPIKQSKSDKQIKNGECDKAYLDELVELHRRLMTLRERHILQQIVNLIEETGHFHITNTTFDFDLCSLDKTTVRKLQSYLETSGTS
UCH37 inh: inhibitors of human UCH37 deubiquitinase, primary screen, biochemical, Ub-AMC cleavage, fluorescence; Ubiquitin carboxyl-terminal hydrolase isozyme L5 (Homo sapiens), Q9Y5K5; hit rate 0.33% among 330,000; purified proteasome/UCH37; inhibition, % (concentration not given with the values);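 active = mean of two replicates above 20%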;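 also: 0% = compound-free wells with enzyme and 100% = wells lacking proteasome; stock transfer was 100 nL into about 20 µL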
Target sequence (Q9Y5K5 whole entry, looked up): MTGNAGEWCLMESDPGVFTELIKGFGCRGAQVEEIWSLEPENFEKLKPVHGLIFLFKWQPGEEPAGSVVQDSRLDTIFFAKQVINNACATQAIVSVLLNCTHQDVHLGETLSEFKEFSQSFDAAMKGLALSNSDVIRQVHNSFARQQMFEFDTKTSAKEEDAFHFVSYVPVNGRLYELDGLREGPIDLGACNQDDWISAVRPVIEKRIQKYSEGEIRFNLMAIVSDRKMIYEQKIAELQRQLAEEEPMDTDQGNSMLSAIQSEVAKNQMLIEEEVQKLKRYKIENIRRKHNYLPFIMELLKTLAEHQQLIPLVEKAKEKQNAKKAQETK
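Reagent: Ub-AMC substrate; assay system: Proteasome-associated human UCH37 deubiquitinase; controls: no-proteasome and no-compound wells; read-out: % inhibition of Ub-AMC cleavage fluorescence; timing: 30 min preincubation with enzyme, 25 min cleavage at room temperature; signal: AMC fluorescence from Ub-AMC cleavage, excitation 355 nm, emission 460 nm; buffer or medium: Tris-HCl pH 7.4 plus ovalbumin, ATP-MgCl2, DTT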
rRNA inh HTS OD600: recorded beside rRNA inh HTS, whose call it bears; OD600 change, %; measured here: OD600 growth;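 optical density of the mix in the first replicate; 0 = DMSO median and -100 = no signal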
rRNA inh HTS RFP: recorded beside rRNA inh HTS, whose call it bears; RFP signal change, %; measured here: RFP humanized mutant strains;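 first replicate; 0 = DMSO median and -100 = no signal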
An asterisk follows results filed as active; i = inactive; ? = inconclusive; · = no result given.

| SMILES | rRNA inh HTS RFP | AF4-AF9 inh | FGF22 binding | E coli growth | Bfl-1 A1 inh | rRNA inh HTS OD600 | Beta cell apopt | UCH37 inh | T cruzi repl | rRNA inh HTS |
| --- | --- | --- | --- | --- | --- | --- | --- | --- | --- | --- |
| S=C(c1ccccc1)N1CCCC1 | 0.5 | -1.7 | i | 0.68 | 0.3 | 3 | -4 | 2.8 | -8 | 5 |
| CCOC(=O)N1CCN(C(=O)c2cn(C)c3ccc(S(=O)(=O)N4CCC(C)CC4)cc3c2=O)CC1 | -0.8 | -6.9 | i | 0.68 | -0.6 | 1 | -3 | 4.3 | -9 | 4 |
| COC(=O)c1c(C)[nH]c(C(=O)COC(=O)Cc2ccc3c(c2)OCCO3)c1C | · | · | · | 0.71 | 0.7 | · | -6 | 1.6 | -2 | · |
| Cn1cccc1/C=N\NC(=O)C1COc2ccc(C(C)(C)C)cc2O1 (centres undefined) | -0.5 | 3.8 | i | · | 1.2 | -1 | 19 | · | -22 | 1 |
| CCOC(=O)c1ccccc1NC(=O)c1cn(CC)c2nc(C)ccc2c1=O | 8.0 | 0.1 | i | 0.69 | 0.3 | 9 | -1 | 0.5 | 6 | 17 |
| COc1cccc(NC(=O)CS(=O)(=O)c2cccc3nsnc23)c1 | -2.2 | 0.8 | i | 0.7 | -0.2 | 9 | 2 | 3.6 | -1 | -5 |
| COc1ccc(-c2nn(-c3ccccc3)cc2/C=C2/SC(=S)N(CCCC(=O)O)C2=O)c(C)c1 | 1.4 | 11 | i | 0.68 | 0.4 | -1 | · | 10 | 7 | 9 |
| CCOc1ccc(/C=N/Nc2ccccc2)cc1 | 0.0 | 4.5 | i | · | 0.0 | 7 | 5 | · | 15 | 0 |
| COCCNC(=O)C(C)OC(=O)c1cc2occc2n1C (centres undefined) | · | · | · | 0.62 | -0.6 | · | · | 1.8 | -6 | · |
| O=C(CCC(=O)Nc1nnc(C2CCCCC2)s1)Nc1ccc(F)cc1 | -1.5 | -1.4 | i | 0.67 | -0.6 | 10 | -4 | -1.4 | -6 | 0 |
| COc1cccc(-c2nnc(SCC(=O)Nc3cc(C)ccc3OC)n2N)c1 | · | · | · | 0.64 | 0.1 | · | -6 | 0.3 | 15 | · |
| COc1cccc(NC(=O)C(NCCC(C)C)c2ccccc2)c1 (centres undefined) | · | · | · | 0.74 | 1.3 | · | 0 | 1.8 | 10 | · |
| Cc1c(C#N)sc(C(N)=O)c1C | -1.0 | -1.3 | i | 0.64 | 0.9 | 9 | -1 | 2.0 | -17 | 2 |
| CCOc1ccccc1C(=O)N[C@H](C(=O)OCC(=O)Nc1nnc(-c2ccccc2)o1)C(C)C | -8.6 | -1.1 | i | 0.7 | · | -53 | · | 2.0 | · | -32 |
| Cc1ccccc1NS(=O)(=O)c1ccc(F)cc1 | · | · | · | 0.7 | -1.2 | · | -4 | 5.5 | -3 | · |
| COc1ccc(Nc2nc(N)nc(SCc3nnc(C)s3)n2)cc1 | -2.6 | · | · | 0.67 | -0.6 | -1 | -7 | 1.3 | 3 | -3 |
| COc1ccc(-c2nnc(SCC(=O)/C(C#N)=C(\C)N)o2)cc1 | · | · | · | 0.7 | -2.3 | · | -3 | 0.6 | 10 | · |
| COc1cc(-c2nn3c(Cc4ccccc4)nnc3s2)cc(OC)c1OC | · | · | · | 0.63 | 0.0 | · | 0 | 3.2 | 7 | · |
| COC(=O)COc1ccc(S(=O)(=O)Nc2ccccc2C(=O)OC)cc1 | -6.2 | 2.3 | i | 0.71 | 0.1 | -9 | -5 | 2.3 | 9 | -1 |
| O=C(Nc1cccc(Cl)c1)NC1CC2CCC1C2 (centres undefined) | -22 | -1.3 | i | 0.63 | -0.2 | -81 | -4 | 1.0 | 1 | -53 |
| Cc1cc(NC(=O)COn2nnc3ccc(Cl)cc32)no1 | · | · | · | 0.75 | 0.3 | · | 1 | 5.9 | 4 | · |
| Cc1cc(C)n(-c2ccc(NC(=O)C3CCCCN3C(=O)c3ccc(C)s3)cc2)n1 (centres undefined) | 5.8 | 0.1 | i | 0.67 | 0.8 | -22 | 9 | -0.6 | -10 | 5 |
| CCOC(=O)Cc1c[nH]c2ccc([N+](=O)[O-])cc12 | -1.2 | 4.4 | i | 0.59 | · | -12 | · | 4.9 | · | -15 |
| Cc1ccc(NC(=S)N/N=C/c2c(C)nn(-c3ccccc3)c2N2CCCC2)cc1 | 0.0 | -2.2 | i | · | -0.1 | 1 | 7 | · | 23 | 7 |
| CCOC(=O)c1c(/N=C/c2ccc(C)cc2O)sc2c1CCN(C)C2 | 0.6 | 9.7 | i | · | 0.0 | 7 | -5 | · | 14 | 10 |
| O=C(NNS(=O)(=O)c1ccccc1Cl)C1COc2ccccc2O1 (centres undefined) | 0.6 | -0.4 | i | 0.69 | 2.6 | 10 | -9 | 6.3 | · | 8 |
| CC(C)OCCCNC(=O)C1CCC(=O)N1C1CCCC1 (centres undefined) | -4.9 | 3.3 | i | 0.67 | 0.3 | 23 | -8 | 4.3 | -24 | 18 |
| Cc1ccc2nc(N3CCOCC3)c3nncn3c2c1 | -2.8 | -29 | i | 0.73 | 0.4 | 3 | -5 | 4.9 | 5 | -2 |
| Cc1ccc(CNS(=O)(=O)c2ccc3c(c2)N(C)CCO3)cc1 | -0.9 | -2.0 | i | 0.64 | -1.6 | -15 | 1 | 0.5 | -17 | 0 |
| CCCc1ccc(Oc2cc(C)nc(N3CCOCC3)n2)cc1 | · | · | · | 0.68 | 0.4 | · | -1 | 2.4 | 25 | · |
| COc1ccc(-c2c(C#Cc3ccsc3)c3cc(-c4ccc(CN5CCOCC5)cc4)ccc3n2C)cc1 | -4.1 | -1.6 | i | 0.81 | -0.4 | 6 | -5 | 1.4 | · | 5 |
| CC(=O)N(Cc1ccccc1)c1c(N)nc(N)[nH]c1=O | -3.3 | 2.2 | i | 0.69 | -0.6 | 8 | -4 | 0.8 | -25 | 7 |
| COc1cc(NC(=O)c2ccccc2)c(OC)cc1NC(=O)CN1C(=O)NC2(CCCCC2)C1=O | · | 1.2 | i | 0.66 | 1.1 | · | 5 | 1.3 | · | · |
| O=C(NCc1cccnc1)c1cc(-c2ccccc2)on1 | · | · | · | 0.67 | -1.3 | · | 7 | -0.9 | 11 | · |
| NC(=O)C1CCN(C(=O)CSc2nc3ccccc3s2)CC1 | · | · | · | 0.66 | 0.8 | · | -1 | -0.3 | -5 | · |
| O=S(=O)(NC1CC2CCC1C2)c1ccc(Cl)cc1 (centres undefined) | -1.2 | -1.3 | i | 0.65 | 0.6 | -2 | · | 1.6 | -7 | 4 |
| CC(C)CC(=O)Nc1ccc2c(c1)nc(CCN1CCCCC1)n2C | -1.2 | 1.4 | i | 0.67 | 1.2 | 17 | -2 | 3.0 | -4 | 9 |
| CC1(C(=O)NNC(=O)c2ccc([N+](=O)[O-])cc2)CC1(Br)Br (centres undefined) | 3.2 | -0.4 | i | 0.64 | -0.6 | 20 | 1 | 3.1 | -13 | 19 |
| CC(C)n1nccc1N(Cc1ccc(Cl)cc1)S(=O)(=O)c1ccccc1 | -12 | -0.8 | i | 0.64 | -0.5 | -46 | 7 | 0.1 | 24 | -36 |
| O=C(CCc1nnc2ccc(NCc3ccc(F)cc3)nn12)NC1CCCC1 | -2.1 | 1.0 | i | 0.7 | -0.1 | 6 | 5 | 5.6 | 9 | -5 |
| CC(=O)C1=C(O)CC(c2ccccc2)CC1=NCCc1c(C)[nH]c2ccccc12 (centres undefined) | 4.1 | ? | i | 0.71 | -0.2 | -10 | -3 | 7.2 | 8 | 0 |
| Clc1ccccc1CN1CCC(Cc2ccccc2)CC1 | 4.1 | 0.2 | i | 0.66 | 0.3 | -7 | 3 | 5.8 | -2 | 2 |
| O=C(NCCC1CCCCN1S(=O)(=O)c1ccccc1)C(=O)NC1CCCC1 (centres undefined) | -1.4 | -17 | i | 0.65 | 0.8 | -11 | 4 | -0.7 | 11 | -3 |
| Cc1ccc(C(=O)NNC(=O)CSc2nnc(-c3ccccc3)n2Cc2ccccc2)cc1 | · | · | · | 0.7 | 0.4 | · | -12 | 2.0 | -3 | · |
| COc1ccc(Cl)cc1NC(=O)C1CCN(C(=O)Nc2ccccc2)CC1 | 0.4 | 1.3 | i | 0.69 | -1.0 | 10 | 12 | -1.9 | · | 0 |
| CCOc1cccc(-c2c(C(=O)N/N=C/c3ccc(Br)cc3)nnn2-c2nonc2N)c1 | 6.0 | 0.4 | i | · | -0.1 | -7 | · | · | 5 | -11 |
| COc1cccc(/C=N/NC(=S)NCc2ccco2)c1OC | 17 | 2.5 | i | · | 0.1 | -11 | 7 | · | -8 | -14 |
| N#C/C(=N/Nc1ccc([N+](=O)[O-])cc1)C(=N)N1CCCCC1 | -1.1 | 5.7 | i | · | · | -5 | · | · | 23 | -16 |
| O=C(CSc1n[nH]c(Cc2ccccc2)n1)Nc1ccccc1Br | -0.2 | 0.7 | i | 0.71 | 1.3 | -19 | -14 | 6.9 | 9 | 1 |
| CCN(CC)C(=O)c1cc(Cl)ccc1NC(=O)c1ccco1 | -0.6 | 0.5 | i | 0.68 | 1.2 | -5 | -1 | 0.6 | 6 | 4 |
| O=C(Nc1ccc2c(c1)OCO2)N1CCN(S(=O)(=O)c2ccc(Cl)cc2)CC1 | · | · | · | 0.71 | 0.7 | · | -2 | 7.4 | -2 | · |
| COC(=O)Cc1cc(=O)n2[nH]c(SC)nc2n1 | · | · | · | 0.72 | -1.0 | · | -4 | 1.7 | -11 | · |
| N#Cc1nc(COc2ccc(Cl)cc2Cl)oc1N1CCOCC1 | · | · | · | 0.72 | -0.3 | · | -8 | 3.5 | 19 | · |
| COCCN1C(=O)c2oc3ccccc3c(=O)c2C1c1ccc(O)c(OC)c1 (centres undefined) | -1.5 | 1.0 | i | 0.74 | 0.5 | 5 | 1 | 1.4 | -12 | 7 |
| CCOc1ccc(N2C(=O)c3ccccc3NC2(C)CC)cc1 (centres undefined) | -3.1 | -0.2 | i | 0.7 | -6.5 | 6 | -6 | -75 | · | 2 |
| N#Cc1ccc(OCC(=O)Nc2nc(-c3cccnc3)cs2)cc1 | 2.5 | -3.5 | i | 0.67 | 0.5 | 6 | -1 | 5.0 | · | 2 |
| C=CC[C@H](CC(=O)N(CCO)Cc1ccccc1)C(=O)N[C@H](COC(=O)[C@H](CC=C)CC(=O)OC(C)(C)C)Cc1ccccc1 | -1.4 | -0.6 | i | · | -0.3 | 0 | -4 | 2.9 | · | 4 |
| COC(=O)c1ccc(C(=O)OC)c(NC(=O)CSCc2ccc(Cl)cc2)c1 | · | · | · | 0.75 | 1.7 | · | -3 | -6.4 | 21 | · |

Assay outcomes: PubChem, several laboratories

Not all compounds are listed; count on the stated rates, not on these rows.
